E coli growth: E. coli growth inhibition, primary screen, OD600; Escherichia coli growth, 23 h; hits give low values; OD600 absorbance (test concentration not listed); 0.21% of 330,000 active;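 active means OD600 absorbance below the run mean of sample wells minus 3.6 SD, in any replicate, cut at about 0.56 in these data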;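 further: stock transfer was 300 nL into about 60 µL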
ALR H2O2 inh: inhibitors of human ALR sulfhydryl oxidase, primary screen, biochemical, H2O2 detection, HRP-luminol luminescence, single point; 3.8% of 290,000 active; purified ALR, DTT oxidation; inhibition, % (no concentration beside the values);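 active means mean and each replicate at 75% or more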;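 further: stock transfer was 7.5 nL into about 7.5 µL; 0% = neutral wells and 100% = wells with inactivated enzyme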
HNF4A DNA FP: change in binding of human HNF4A to DNA, primary screen, biochemical, fluorescence polarization, FITC-DNA; Hepatocyte nuclear factor 4-alpha (Homo sapiens), P41235; 1 h; activity change, % at 10 µM; 0.3% of 360,000 active; AID 1224865, 2016; in the data active means activity change above about 30%, passing the limit was not always enough;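 further: controls were the assay level and a saturating level of protein; the project sought stronger binding though the title names inhibitors; some compounds called inactive have numbers as strong as hits; positive values seem to mean higher polarization but the record does not say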
FGF22 binding: binders of human FGF22 protein, primary screen, FGF22 synaptogenesis inhibitor project, biophysical, thermal shift, single point; Fibroblast growth factor 22 (Homo sapiens), Q9HCT0; recombinant FGF22 thermal shift, SYPRO orange fluorescence; percent of sucrose octasulfate shift, DMSO zero; calls only at 9.99 µM; 1.5% of 340,000 active; AID 651658, 2012;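 active means melting point raised past a set limit in the mean and every replicate; three in four hits are not shown here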
Target sequence (Q9HCT0 whole entry, looked up): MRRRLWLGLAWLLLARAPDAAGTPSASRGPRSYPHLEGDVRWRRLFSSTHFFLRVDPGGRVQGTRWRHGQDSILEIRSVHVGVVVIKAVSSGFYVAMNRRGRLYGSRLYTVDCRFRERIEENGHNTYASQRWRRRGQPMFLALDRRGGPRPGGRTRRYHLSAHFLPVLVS
AF4-AF9 inh: inhibitors of AF4 peptide binding to AF9, primary screen, biochemical, AlphaScreen, biotin-AF4 peptide, FLAG-AF9, single point. AID 651704, 2012. 0.47% of 350,000 active. inhibition, % at 10 µM;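 active means every replicate reaching a set inhibition limit, whatever the replicate mean, cut at about 25% in these data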;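 further: 0% = plate neutral control median and 100% = total signal loss; the record names both 10 and 1 µM as test concentration; the first replicate is given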
Target sequence (P42568 whole entry, looked up): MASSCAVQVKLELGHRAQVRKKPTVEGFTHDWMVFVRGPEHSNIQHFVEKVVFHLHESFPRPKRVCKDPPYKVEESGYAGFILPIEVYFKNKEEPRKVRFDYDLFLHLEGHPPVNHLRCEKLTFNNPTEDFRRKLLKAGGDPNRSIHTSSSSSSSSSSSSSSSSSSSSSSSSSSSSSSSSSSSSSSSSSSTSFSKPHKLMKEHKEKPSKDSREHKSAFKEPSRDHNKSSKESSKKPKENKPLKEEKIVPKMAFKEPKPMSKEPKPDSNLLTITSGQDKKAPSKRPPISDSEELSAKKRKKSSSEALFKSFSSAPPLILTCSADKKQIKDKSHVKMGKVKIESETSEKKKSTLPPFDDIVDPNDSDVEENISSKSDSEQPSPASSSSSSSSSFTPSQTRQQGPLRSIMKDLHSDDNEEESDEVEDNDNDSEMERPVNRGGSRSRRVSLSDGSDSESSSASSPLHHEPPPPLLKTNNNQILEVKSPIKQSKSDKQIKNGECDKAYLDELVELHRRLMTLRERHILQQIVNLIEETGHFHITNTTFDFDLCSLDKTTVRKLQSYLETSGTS
Ecoli rRNA inh: reduced GFP signal of wild-type E. coli, primary screen, bacterial rRNA inhibitor project, GFP/RFP fluorescence, OD600, single point; 1.6% of 350,000 active; GFP signal change (wild-type ribosome), % (test concentration not listed); E. coli WT GFP vs humanized-ribosome RFP mutants, 24 h; hits give low values; DMSO median 0, no signal -100;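 active means significant combined selectivity score with lowered wild-type GFP, culture density cut under 30%, mutant RFP and density less affected; inactive means any of these conditions unmet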; further: one replicate is shown; some compounds called inactive have numbers as strong as hits
Vif A3G: inhibitors of Vif binding to APOBEC3G peptide, primary screen, biochemical, TR-FRET, GST-Vif 1-94, biotin-A3G peptide, dose response retest (AID 1117319); Virion infectivity factor (Human immunodeficiency virus type 1 group M subtype B (isolate …; TR-FRET GST-Vif / biotin-A3G peptide binding; higher % means a stronger effect; test concentration not given here; strong numbers were not always called active; one-dose inhibition, %; IC50 in µM for titrated hits; 0.57% of 260,000 active;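 active means above the screen mean plus three standard deviations and confirmed in dose response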;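 further: Vif residues 1-94 fused to GST binding biotinylated APOBEC3G peptide 110-148; 0% = full assay without inhibitor and 100% = GST in place of GST-Vif; retest series ran down from 100 µM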
Ecoli rRNA inh OD600: further read-out of Ecoli rRNA inh, marked with its call; OD600 change, %; measured here: OD600 growth;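 optical density of the mix in the first replicate; 0 = DMSO median and -100 = no signal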
Ecoli rRNA inh RFP: further read-out of Ecoli rRNA inh, marked with its call; RFP signal change, %; measured here: RFP humanized mutant strains;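 first replicate; 0 = DMSO median and -100 = no signal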
The depositor's hits bear a star; i = inactive; . = no result given. These rows are one share of the data; the hit share may differ from the screen's.

canonical_smiles	E coli growth	AF4-AF9 inh	Vif A3G	ALR H2O2 inh	HNF4A DNA FP	FGF22 binding	Ecoli rRNA inh	Ecoli rRNA inh RFP	Ecoli rRNA inh OD600
C[C@H]1CN([C@@H](C)CO)C(=O)Cc2cc(NC(=O)CCCCCC(=O)Nc3ccccc3N)ccc2O[C@H]1CN(C)Cc1ccc(Cl)c(Cl)c1	.	1.0	.	.	.	i	-7	8.5	2
Cc1ccc(N(CC(=O)NC(C)(C)C)C(=O)CS(=O)CC(=O)Nc2ccc3c(c2)OCO3)cc1 (stereo not drawn)	0.69	-1.7	1%	6	1.2	i	-1	-4.4	-7
Fc1ccc2cnc(CCO[C@H]3CCCCO3)cc2c1	.	49*	.	-3	-2.6	i	-1	-8.4	-4
CCC(C(=O)NC(C)CCc1ccccc1)n1nc(C)n2c(cc3occc32)c1=O (stereo not drawn)	0.76	.	5%	0	1.0	.	.	.	.
CCOc1ccc(C(=O)CCC(=O)Nc2cc(C)ccn2)cc1	0.68	-0.2	-6%	-1	3.4	i	7	4.1	10
Cc1ccccc1NC(=O)Cc1nnc(SCC(=O)Nc2ccccc2)n1C	0.67	-2.7	2%	.	0.2	i	11	0.1	9
COc1ccccc1OCCCCn1c(C(C)O)nc2ccccc21 (stereo not drawn)	0.67	1.8	.	-9	-0.7	i	-12	-0.4	-14
c1ccc(C[C@H]2CN=C(Nc3ccccc3)N2CC2CCCCCC2)cc1	.	.	.	-3	-4.0	i	-20	25	-47
Cc1ccc(C(=O)N/N=C/c2c(O)ccc3ccccc23)cn1	.	1.4	14%	-19	45*	i	20	7.5	23
COC(=O)/C(=C/c1cccnc1)NC(=O)c1ccccc1	0.7	0.9	.	-1	1.2	i	10	3.1	0
COc1ccc(NC(=O)C2CCC(=O)N2C(=O)OCc2ccccc2)cc1 (stereo not drawn)	0.6	-9.3	-2%	-2	0.2	i	3	-1.0	15
CCOC(=O)c1nn(-c2cccc(Cl)c2)c2nc(Nc3ccccc3)cc(=O)n12	0.7	.	-2%	12	1.8	.	.	.	.
Cc1ccc2nc(/C(C#N)=N/O)[nH]c2c1	.	.	0%	-2	7.8	.	.	.	.
CCCNC(=O)Nc1ccc2c(c1)C(=O)N(C)[C@H]1CC[C@@H](CC(=O)OC)O[C@@H]1CO2	.	0.0	.	.	.	i	1	-2.1	4
Cc1ccc(-n2ncc3c(=O)[nH]cnc32)c(C)c1	0.69	.	69%	-7	5.5	.	.	.	.
CCCCc1nc2ccc(S(=O)(=O)O)cc2[nH]1	0.69	-1.7	4%	-11	-1.2	i	10	-2.7	10
C[C@@H]1CN([C@@H](C)CO)C(=O)c2cccc(NC(=O)C3CCOCC3)c2O[C@H]1CN(C)Cc1ccc(C(F)(F)F)cc1	.	-1.2	.	.	.	i	-6	-1.1	-3
O=C(OCc1cccnc1)C1=Cc2ccccc2OC1	0.66	-6.1	5%	1	1.7	i	-7	-3.0	-16
CNC(=O)C[C@@H]1CC[C@H]2[C@@H](COC[C@@H](O)CN2Cc2ccncc2)O1	.	-3.1	.	.	.	i	1	-2.5	16
CC(=O)c1c(C)n(C)c2ccc(OC(=O)c3ccco3)cc12	0.72	.	-2%	0	0.9	.	.	.	.
CC(C)NC(=O)c1onc(CSc2ccc(F)cc2)c1C(=O)NC(C)C	0.7	-1.1	.	-14	3.4	i	6	-7.1	-3
Cc1nc(-c2ccc(C(=O)Nc3ccccc3F)cc2)cs1	0.69	-0.5	.	-11	-0.5	i	0	0.5	19
O=C(Nc1ccccc1C(=O)O)c1ccc(N2C(=O)C3CC=CCC3C2=O)cc1 (stereo not drawn)	0.66	1.1	-1%	3	1.3	i	8	0.1	8
CCN(CC)CCNC(=O)C(=O)NCC1OCCN1S(=O)(=O)c1ccc([N+](=O)[O-])cc1 (stereo not drawn)	0.67	4.3	12%	-15	3.4	i	16	-8.0	8
Cc1ccc(CN2CC(C(=O)N3CCN(S(=O)(=O)c4ccc(C(C)C)cc4)CC3)CC2=O)cc1 (stereo not drawn)	0.66	-13	3%	-1	-3.4	i	-1	3.6	-28
COc1cccc(-n2c(C)nnc2SCC(=O)Nc2ccccc2N2CCOCC2)c1	0.72	.	4%	-11	-2.8	.	.	.	.
CC1(C)C2CC=C(/C=N/NC(=S)NCCc3ccccc3)C1C2 (stereo not drawn)	.	5.4	4%	0	0.3	i	-36	16	-54
CO[C@H]1CN(C)C(=O)c2cc(NC(=O)NC3CCCCC3)ccc2OC[C@@H](C)N(CC2CCOCC2)C[C@@H]1C	.	-21	.	.	.	i	1	0.8	2
COCC(=O)Nc1ccc2c(c1)C(=O)N(C)C[C@H](OC)[C@@H](C)CN(CCC(F)(F)F)[C@@H](C)CO2	.	1.1	.	.	.	i	-2	0.5	-7
O=C(C[C@@H]1CC[C@@H](NC(=O)C2CCOCC2)[C@H](CO)O1)Nc1nccs1	.	-2.2	.	.	.	i	1	-2.8	1
CCCN(CC(=O)Nc1ccc(F)c(F)c1F)C(=O)Cn1c(=O)cnc2ccccc21	0.69	0.3	3%	9	1.9	i	3	-0.7	11
OCCCNc1nc(-c2ccc(Cl)cc2)nnc1-c1ccc(Br)cc1	0.69	.	.	8	2.5	.	.	.	.
COc1ccc(S(=O)(=O)Nc2ccc3c(c2)C(=O)N([C@@H](C)CO)C[C@H](C)[C@H](CN(C)S(=O)(=O)c2ccccc2)OCCCC[C@H](C)O3)cc1	.	0.7	.	.	.	i	2	1.4	9
Cc1onc(-c2c(Cl)cccc2Cl)c1C(=O)Nc1ccc2c(c1)OCO2	0.72	8.0	2%	-7	2.6	i	-22*	-4.7*	-9.6*
C=CCn1c(=S)[nH]c2cc(C(=O)Nc3ccc(F)cc3)ccc2c1=O	0.64	-0.1	-2%	-2	0.5	i	-3	-1.6	-8
Cc1nc(N2CCOCC2)nc2c1CCCC2	0.71	.	0%	.	0.0	.	.	.	.
CC1(C)CC(=O)C2=C(C1)N=c1s/c(=C/c3ccc(F)c(F)c3)c(=O)n1C2c1ccc(F)cc1 (stereo not drawn)	.	.	-2%	-1	3.8	.	.	.	.
CS(=O)(=O)Nc1ccc(C(=O)NC2CCCCC2)cc1	0.69	-1.1	3%	0	0.1	i	5	-1.2	6
C[C@H]1CN([C@@H](C)CO)C(=O)Cc2cc(N(C)C)ccc2O[C@H]1CN(C)S(=O)(=O)c1cn(C)cn1	.	-6.4	.	.	.	i	2	-0.1	9
COc1ccc(NC(=O)Nc2ccc(OCC(=O)N3CCOCC3)cc2)cc1OC	0.67	.	11%	-43	3.3	.	19	0.1	17
Cc1nc(-c2cccc(Br)c2)ccc1C(=O)O	0.73	0.1	3%	.	3.6	i	-3	1.9	4
O=C(O)c1ccc(CNC(=O)c2ccccc2NC(=O)c2cccc([N+](=O)[O-])c2)cc1	0.69	-0.1	-2%	11	-0.3	i	23	6.3	26
CC1(C)CC(NC(=O)c2ccc(Br)o2)CC(C)(C)N1	0.63	-0.6	.	-1	-0.8	i	5	0.2	16
Cc1cccc(C)c1-n1nnnc1C1(C)CCC(=O)N1c1ccc(N2CCOCC2)cc1 (stereo not drawn)	.	-2.6	.	.	5.5	i	8	3.7	6
CC(C)(C)NC(=O)Cn1c(=O)c(=O)n(Cc2ccccc2)c2ccc(Cl)cc21	0.71	.	-14%	-6	0.7	.	.	.	.
CC(=O)n1cc([C@@H]2C=C(C(=O)N3CCN(C)CC3)O[C@H](OCc3ccc(CO)cc3)C2)c2ccccc21	.	-1.0	.	-51	0.2	i	-3	-3.8	-2
O=C(O)Cc1ccc(Oc2ncc(C(F)(F)F)cc2Cl)cc1	0.67	-2.3	32%	-7	-0.1	i	-1	-9.1	-8
COc1ccccc1OCC(=O)Nc1cc2c(cc1C(=O)O)OCCCO2	0.69	-1.7	.	-4	2.3	i	-6	0.1	-1
Cc1cccc(N(CC(=O)NC(C)(C)C)C(=O)CNC(=O)c2cccs2)c1	0.65	-2.2	.	1	-3.3	i	4	0.0	7
O=C(C[C@@H]1CC[C@H]2[C@@H](COC[C@@H](O)CN2Cc2cccc(C(F)(F)F)c2)O1)NCCc1ccncc1	.	-2.4	.	.	.	i	-4	-1.5	9
CC(C)Cn1c(N)c(C(=O)COC(=O)c2c(O)c(Cl)cc(Cl)c2Cl)c(=O)n(C)c1=O	0.62	-0.8	-3%	.	-3.2	i	.	.	.
O=C1O/C(=C/C(=O)N2CCOCC2)c2ccccc21	0.75	.	4%	5	3.4	.	.	.	.
Cc1c(Br)cc(C(=O)N2CCCCCC2)c(C)c1C	0.74	.	1%	0	0.9	.	.	.	.
COc1ccc(/C=C(\NC(=O)c2ccc(OC)cc2)C(=O)NC(CCSC)C(=O)O)cc1 (stereo not drawn)	0.78	.	0%	.	-1.4	.	.	.	.
O=C(Cn1nnc(-c2ccccc2)n1)NNC(=O)c1ccco1	0.66	-3.5	-3%	1	1.9	i	2	-2.1	-1
